High-throughput results: PubChem, several laboratories
MT1-MMP act inh – blockers of MT1-MMP proenzyme processing, primary screen, HT1080 RFP-PRO-GFP cells, GFP/RFP fluorescence. Matrix metalloproteinase-14 (Homo sapiens), P50281. GFP/RFP ratio fluorescence, overnight; percent of plate control window, DMSO zero. GFP/RFP ratio change, % at 20 µM. 0.061% of 360,000 active. AID 651647, 2012;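 active means GFP/RFP ratio change of at least 30% with cell ATP level not reduced by more than half and red fluorescence within 50% of control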; further: strong numbers were not always called active
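Read-out: GFP/RFP fluorescence ratio; Test system: RFP-PRO-GFP reporter HT1080 cells; Compound dosing: single-point 20 µM compound, 1% DMSO; Times: overnight compound exposure at 37 °C.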
PABP FP inh – PABP poly(A) RNA binding inhibitors, primary screen, biochemical, fluorescence polarization, uHTS; Polyadenylate-binding protein 1 (Homo sapiens), P11940; inhibition, % at 35 µM; 1% of 290,000 active; AID 2014, 2009;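 active means 50% or more with normal probe brightness, or confirmed in later tests; inconclusive means above 50% with abnormal brightness, or retests that disagree; inactive means below 50% or failed in later tests; about a fifth of its hits are not listed in these tables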;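 further: calls also rest on retests at 20 µM and on dose response follow-up; controls were probe without protein and protein plus probe with vehicle; some compounds called inactive have numbers as strong as hits; many hits fall short of the cut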
Target sequence (P11940 whole entry, looked up): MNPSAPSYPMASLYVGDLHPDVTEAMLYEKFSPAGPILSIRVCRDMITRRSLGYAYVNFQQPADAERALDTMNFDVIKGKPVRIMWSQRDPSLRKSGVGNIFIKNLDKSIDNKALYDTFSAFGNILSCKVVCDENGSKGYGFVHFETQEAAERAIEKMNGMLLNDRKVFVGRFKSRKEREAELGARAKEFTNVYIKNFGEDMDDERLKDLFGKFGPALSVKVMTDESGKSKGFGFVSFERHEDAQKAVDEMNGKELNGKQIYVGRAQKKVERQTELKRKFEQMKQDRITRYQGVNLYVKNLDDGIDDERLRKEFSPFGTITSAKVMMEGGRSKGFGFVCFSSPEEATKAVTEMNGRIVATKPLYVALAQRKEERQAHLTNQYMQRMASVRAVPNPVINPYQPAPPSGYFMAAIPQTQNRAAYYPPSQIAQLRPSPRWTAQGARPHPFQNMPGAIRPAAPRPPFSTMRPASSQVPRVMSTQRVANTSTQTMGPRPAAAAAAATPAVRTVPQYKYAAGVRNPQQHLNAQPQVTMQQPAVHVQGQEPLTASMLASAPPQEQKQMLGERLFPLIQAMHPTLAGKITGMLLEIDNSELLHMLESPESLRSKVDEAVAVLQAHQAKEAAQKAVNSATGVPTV
HIV Env fusion – inhibitors of HIV-1 Env-driven cell-cell fusion, primary screen, HeLa-JRFL effector, CEM21 target cells, luciferase; inhibition, % at 12.3 µM; 1.1% of 360,000 active;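 active means mean replicate inhibition score of at least 50 and every replicate individually at or above 50; inconclusive means only one of the two criteria met; inactive means mean below 50 and not all replicates reaching 50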;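 further: 0% = plate neutral controls and 100% = maraviroc near 300 nM; one replicate is shown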
CSC inhib – cancer stem cell viability inhibitors, primary screen, luminescence | cancer stem cell-like cells viability | inhibition, % at 7.5 µM | 1.1% of 300,000 active | AID 2717, 2010;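 active means mean at 75% or more and at least half the replicates too; inconclusive means mean and replicates disagree; tested in HMLE shEcad cells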;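 further: 0% = median of negative and 100% = median of positive control wells; the first replicate is given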
eIF4H inh – human eIF4H binding inhibitors, primary screen, translation initiation inhibitor project, biochemical, uHTS, fluorescence polarization; Eukaryotic translation initiation factor 4H (Homo sapiens), Q15056; eIF4H fluorescence polarization binding assay; inhibition, % at 35 µM; 0.94% of 290,000 active; AID 2012, 2009;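 active means 50% or more with normal probe brightness, or confirmed in later tests; inconclusive means above 50% with abnormal brightness, or retests that disagree; inactive means below 50% or failed in later tests; about a fifth of its hits are not listed in these tables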;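 further: calls also rest on retests at 20 µM and on dose response follow-up; 0% = protein and probe with vehicle and 100% = probe without protein; strong numbers were not always called active; many hits fall short of the cut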
Yeast UUG start – modulators of yeast start codon fidelity, primary screen, whole organism, S. cerevisiae, single point, plate reader. S. cerevisiae UUG-firefly luciferase reporter, luminescence/redox ratio. activity score, % at 18.7 µM. 0.13% of 350,000 active. AID 602363, 2012;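 active means replicate mean at a twofold rise or more, about +100% in these data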;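 further: firefly luciferase made from a UUG start codon reports start codon fidelity; reporter light over untreated wells divided by growth signal over untreated wells; some hits fall short of that in this replicate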
Rce1 inhib – yeast Rce1p protease inhibitors, primary screen, biochemical, fluorescence, cell-free homogeneous; yeast membranes, quenched prenylated peptide cleavage fluorescence; CAAX prenyl protease 2 (Saccharomyces cerevisiae (strain ATCC 204508 / S288c)), Q03530; AID 2563, 2010; calls only; 0.27% of 290,000 active;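 active means fall in fluorescence gain of 50% or more versus controls, with final raw signal at or below 3038400; inconclusive means same 50% fall but final raw signal above 3038400; inactive means fall in fluorescence gain under 50%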;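 further: plate controls were neutral control wells for no effect and wells lacking membranes for full effect; tested at 10 µM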
Target sequence (Q03530 whole entry, looked up): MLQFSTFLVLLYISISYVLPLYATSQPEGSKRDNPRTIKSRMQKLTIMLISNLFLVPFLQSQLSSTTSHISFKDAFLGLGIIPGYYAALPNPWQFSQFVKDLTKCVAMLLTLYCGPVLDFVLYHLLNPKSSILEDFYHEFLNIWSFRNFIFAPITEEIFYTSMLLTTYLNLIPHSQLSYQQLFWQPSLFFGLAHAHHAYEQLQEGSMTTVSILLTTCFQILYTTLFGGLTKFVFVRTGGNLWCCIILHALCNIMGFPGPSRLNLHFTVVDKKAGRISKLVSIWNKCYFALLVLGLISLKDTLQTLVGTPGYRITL
eIF4H inh retest – also measured in eIF4H inh; calls as there; inhibition, %; compound at 20 µM; confirmation average;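 mean of two retest wells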
PABP FP inh retest – further read-out of PABP FP inh, marked with its call; inhibition, %; compound at 20 µM; confirmation repeats;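 mean of two retest wells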
MT1-MMP act inh RFP – further read-out of MT1-MMP act inh, marked with its call; RFP signal change, %; measured here: RFP expression control read;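 0 = vehicle wells; hits needed this value within 50% of zero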
An asterisk follows results filed as active; i = inactive; ? = inconclusive; · = no result given.

SMILES	MT1-MMP act inh	MT1-MMP act inh RFP	PABP FP inh	HIV Env fusion	CSC inhib	eIF4H inh	Yeast UUG start	Rce1 inhib	others
Cc1sc(NC(=O)c2ccccc2)c(C(c2ccccn2)N2CCN(CCO)CC2)c1C (stereo unspecified)	3	2	-19	3	·	?	·	i
COc1ccc(-c2coc3cc(O[C@@H]4O[C@H](CO)[C@@H](O)[C@H](O)[C@H]4O)c(OC)cc3c2=O)cc1	4	3	·	-49	-9	·	1	·
O=c1c2c(nc3cc(-c4cccc(F)c4)[nH]n13)CCC2	0	1	3	-35	-13	2	-20	i
Cc1ccc(NC(=O)c2cccs2)cc1[N+](=O)[O-]	1	-5	1	-10	-4	-4	·	i
CC(=O)c1sc(Nc2cccc3ccccc23)nc1C	5	4	·	-48	6	·	·	i
Cc1cccc(NC(=O)C2CCN(S(=O)(=O)c3cccc4cccnc34)CC2)n1	-2	-9	-2	0	-3	-5	1	i
COC(=O)c1sccc1NC(=O)CSCC(=O)O	·	·	?	22	1	-1	·	i
CCC(C)N1CCN(S(=O)(=O)c2ccc3ccccc3c2)CC1 (stereo unspecified)	5	0	9	-1	1	9	-11	i
CC1CC(C)CN(CCCNC(=O)c2ccc3c(c2)NC(=O)CS3)C1 (stereo unspecified)	-2	2	·	-4	-3	·	-22	i
COc1ccccc1CC(=O)Nc1nc(-c2ccc(F)c(F)c2)cs1	-8	-15	9	-27	19	1	-11	i
O=C(NCCc1cccs1)Nc1ccc2nc([C@@H]3O[C@H](CO)[C@@H](O)[C@H]3O)[nH]c2c1	1	9	·	-23	·	·	-23	·
CC(C)(C)c1nc(Sc2ncccc2[N+](=O)[O-])n[nH]1	0	0	-7	-3	-11	-10	·	i
CCOC(=O)COc1ccc2c(c1)C(=O)CC(C)(c1cccnc1)O2 (stereo unspecified)	1	1	6	·	11	-12	·	i
O=C(O)CCCCCNc1ccc2nsnc2c1[N+](=O)[O-]	3	5	5	5	·	-2	5	i
COc1cc(NC(=O)c2cccc(Cl)c2)ccc1NC(=O)c1cccs1	4	-9	2	2	·	-5	·	i
CNc1nc(C)c(C(=O)c2ccc(Cl)cc2)s1	-4	-6	-4	·	4	-2	·	i
COc1ccc(/C(C)=N/NC(=O)C2C3CCCCC32)c(OC)c1 (stereo unspecified)	1	-2	8	-12	-7	2	·	i
COc1ccc(C=C(C#N)C#N)c(CSc2ccccn2)c1	-2	2	-6	8	2	-15	-18	i
COc1cc(/C=C(\C#N)c2nc3c(s2)CCCC3)ccc1O	·	·	48	·	33	22	·	i
CCCC1CCC(C2=N/C(=C\c3ccc(OC)c(OC)c3)C(=O)O2)CC1 (stereo unspecified)	7	-4	-6	-78	-2	3	-8	i
CCCCC1=CC2=CC(=O)C(C)(OC(=O)CC)C(=O)C2=CN1CCN1CCOCC1 (stereo unspecified)	·	·	24	·	22	22	·	i
CCOC(=O)c1c(NC(=O)COc2ncnc3ccccc23)sc(C)c1CC	-6	-12	3	8	-28	-2	10	i
Cc1cc(C)nc(-n2ncc3c2CC(c2ccccc2C)CC3=O)n1 (stereo unspecified)	-3	-2	21	15	-15	1	·	i
CCc1ccc(OCCNC(=O)c2ccc(S(=O)(=O)N(C)C)cc2)cc1	4	2	0	-61	-4	-4	·	i
COC(=O)C(C)NC(=O)C1CCCN1S(=O)(=O)c1cc(C)c(Cl)cc1C (stereo unspecified)	4	3	2	·	-18	-2	·	i
O=C(C1CCN(C2CCN(C/C(Cl)=C/c3ccccc3)CC2)CC1)N1CCOCC1	5	6	-9	-1	65	-12	·	i
CCCCCCC(=O)N=Nc1c(O)[nH]c2ccc([N+](=O)[O-])cc12	10	0	4	·	-6	7	·	i
CCC(Sc1nc2ccncc2[nH]1)C(=O)Nc1cc(Cl)ccc1C (stereo unspecified)	-1	-3	-4	15	-4	-6	-11	i
COc1ccc(N2CCN(Cc3cc(=O)oc4ccc5ccccc5c34)CC2)cc1	-7	-14	4	·	-13	-2	3	i
O=C(/C=C/c1ccc([N+](=O)[O-])cc1)NNC(=O)C1CC1	3	-1	-14	15	17	-4	-14	i
CCOC(=O)CNS(=O)(=O)c1cc(-c2nn(C)c(=O)c3ccccc23)ccc1C	0	2	8	·	4	20	-13	i
Cc1ccc2oc(-c3cccc(NC(=S)NC(=O)/C=C/c4ccco4)c3)nc2c1	-4	-3	6	·	47	48	·	i
CCOC(=O)c1cc(C#N)c(SCc2ccc(C#N)cc2)nc1C	-1	1	·	15	-13	·	7	i
COc1ccc(C(=O)c2ccc(OC)c3cccc(O)c23)cc1OC	0	4	10	·	-2	-8	2	i
COc1ccc(CC(=O)NCCN2CCCC2)cc1	3	6	13	·	·	-6	·	i
COc1ccc(CN(C)c2ncnc(N)n2)cc1	1	3	-7	·	-15	-1	-15	i
CCc1cccc(C)c1NC(=O)COC(=O)c1ccc2c(c1)S(=O)(=O)c1ccccc1C2=O	3	3	2	3	19	-5	4	i
CC(C)NC(=O)c1onc(CSc2cccc(F)c2)c1C(=O)O	0	6	9	·	4	-6	-6	i
COc1ccc(Nc2nccc3c2ncn3C)cc1	-2	-3	·	-2	-7	·	·	i
O=C(NCc1ccc(F)cc1)c1ccc[nH]1	1	4	-14	10	5	-4	·	i
COC(=O)c1cnn(C(=O)c2ccccc2Br)c1N	-2	5	2	-30	7	-1	·	i
COc1ccc(CCNC(=O)CN2c3cccc4cccc(c34)S2(=O)=O)cc1	0	3	·	17	·	·	-3	·
CC(C)(C)NC(=O)c1cc(-c2ccccc2)n[nH]1	0	2	7	7	-14	-4	-15	i
Cc1c(C(=O)N2CCOCC2)c(S(=O)(=O)Nc2ccc(F)cc2)c(C)n1C	0	0	11	-6	-6	-9	23	i
CC(=O)c1cccc(Nc2nc(-c3cccnc3)cs2)c1	0	-9	17	-20	·	0	-14	i
O=C1CCc2cc(S(=O)(=O)Nc3ccc(F)cc3)ccc2N1	3	2	·	·	-12	·	-13	·
COC(=O)C1CCN(C(=O)COC(=O)C2CCN(S(=O)(=O)c3ccc(C)c(C)c3)CC2)CC1	0	2	·	-22	-11	·	·	i
O=C(CSc1nc2ccccc2o1)NC1CCS(=O)(=O)C1 (stereo unspecified)	3	4	·	-3	-1	·	·	·
O=C(OCC(=O)N1CCN(c2ccccc2)CC1)c1ccccc1OC(F)F	-8	-4	·	·	-10	·	-12	i
O=C(Cn1ncc2c([nH]c3ccccc32)c1=O)NCC1CCN(Cc2ccc(F)cc2)CC1	-4	0	6	14	14	6	-9	i
Cc1ccccc1OCC(O)CN(CCO)Cc1ccccc1 (stereo unspecified)	5	5	7	31	-22	-4	·	i
O=C(NCc1nnnn1-c1ccc(Cl)cc1)c1ccc([N+](=O)[O-])o1	0	-5	·	33	·	·	-19	·
C[C@H](CO)N1C[C@H](C)[C@@H](CN(C)S(=O)(=O)c2ccccc2)Oc2ccc(NC(=O)Cn3cnnn3)cc2C1=O	2	3	·	-13	-7	·	17	·
C[C@]12C(=O)N(c3cccc(F)c3)C(=O)N1[C@H]1c3ccccc3OC[C@@H]1[C@H]2c1ccccc1	-4	-8	·	-59	4	·	-17	·
O=C(Nc1ccc(S(=O)(=O)Nc2ncccn2)cc1)c1cc([N+](=O)[O-])ccc1Cl	-3	-4	-2	-8	-12	-8	-10	i
CCN(CC)S(=O)(=O)c1cccc(-c2nnc(-c3ccc(C)cc3)o2)c1	3	-3	-1	27	11	-11	0	i
CC(=NN=C(C)c1ccc(O)cc1)c1ccc(O)cc1	-5	-22	·	-34	·	·	-10	·
CC(Sc1nc(-c2ccccc2)cc(C(F)(F)F)n1)C(=O)Nc1sc2c(c1C#N)CCC2 (stereo unspecified)	-17	-9	3	·	-8	-6	·	i
O=C1CN(S(=O)(=O)c2ccccc2)CC(=O)N1CCc1ccccc1	-2	3	4	-21	-4	-3	-6	i
O=C(NC(=S)NC1CCCCC1)c1ccc(Cl)cc1	2	-4	2	-153	5	18	-26	i
Following part:
SMILES	MT1-MMP act inh	MT1-MMP act inh RFP	PABP FP inh	HIV Env fusion	CSC inhib	eIF4H inh	Yeast UUG start	Rce1 inhib	others
Cc1ccc(-c2noc(CCC(=O)N3CCCc4ccccc43)n2)cc1	-2	-3	-18	·	-9	-10	-10	i
CCOc1ccc(NC(=O)C2C3C=CC4(CN(C(C(=O)OC)C(C)C)C(=O)C24)O3)cc1 (stereo unspecified)	2	2	-3	6	-12	-6	-5	i
COc1ccc([C@H]2CC(=O)C=C(c3ccc(Cl)c(C(F)(F)F)c3)C2)cc1OC	-1	-2	·	24	42	·	-2	·
O=c1cc(O)c2c(=O)n(Cc3ccccc3)c3ccccc3c2o1	-10	-7	55	-2	4	130	·	i	eIF4H inh retest=13;PABP FP inh retest=7
COc1ccccc1CNC(=O)c1ccc(-c2ccccc2Cl)o1	-4	-3	1	-5	35	-6	-12	i
Cc1ccccc1N(CC(=O)NCC1CCCO1)C(=O)C1(C)CC(=O)N=C2C=CC=CN21 (stereo unspecified)	1	-2	-3	-15	-12	12	·	?
COc1ccc(OC)c(S(=O)(=O)N(C)CC(=O)N2CCCCC2)c1	3	5	-1	7	-7	-9	-25	i
CCN(CC)C(=O)CSc1ncnc2c1nnn2-c1ccc(OC)cc1	-2	-2	-8	·	-8	-13	-11	i
COc1ccc(OC)c(N2C(=O)CC(C(C)c3ccccc3)C2=O)c1 (stereo unspecified)	-2	-3	3	·	7	49	-12	i
CN(Cc1ccco1)c1ncnc2ccc(-c3ccoc3)cc12	-11	-9	·	·	-9	·	16	·
O=C(COc1ccccc1C(=O)Nc1ccccc1)NCCc1ccccc1	1	-1	-6	-38	-13	-5	·	i
CC(C)(C)NC(=O)c1cc([N+](=O)[O-])ccc1N1CCCCC1	3	1	-6	5	39	-8	·	i
CCCCn1c(SCC(=O)N2CCCCC2C)nc2cc(S(N)(=O)=O)ccc21 (stereo unspecified)	3	2	9	·	-6	-2	-7	i
CSc1ccccc1NC(=O)c1cnc2scc(C)n2c1=O	3	1	9	-4	9	-1	-4	i
CN1CCN(CCOCCOc2c(Cl)cc(Cl)cc2Cl)CC1	2	1	·	23	41	·	-17	i
CCOC(=O)CSc1nc2ccccc2n1CC(=O)N(C(C)C)C(C)C	3	1	1	·	-9	-1	-18	i
Cc1cc(OCC(=O)NC2CC(C)(C)NC(C)(C)C2)c2c(C)c(C)c(=O)oc2c1	-1	3	-14	-2	-6	7	1	i

Molecules above with a COOH group:
SMILES	MT1-MMP act inh	MT1-MMP act inh RFP	PABP FP inh	HIV Env fusion	CSC inhib	eIF4H inh	Yeast UUG start	Rce1 inhib	others
COC(=O)c1sccc1NC(=O)CSCC(=O)O	·	·	?	22	1	-1	·	i
O=C(O)CCCCCNc1ccc2nsnc2c1[N+](=O)[O-]	3	5	5	5	·	-2	5	i
CC(C)NC(=O)c1onc(CSc2cccc(F)c2)c1C(=O)O	0	6	9	·	4	-6	-6	i
